ugtP null kill = growth inhibition of ugtP-null S. aureus, primary screen, RN4220 ugtP deletion, OD600; 16 h; some inactives read as strong as hits; growth inhibition, % (test concentration not listed); 330,000 tested, 0.54% active; AID 1259309, 2017;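 active = z-score under -3 and OD600 up to 0.15 on both plates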;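 also: plate controls were untreated wells for no effect and antibiotic for full effect; wells of about 80 µL received 100 nL stock; the first replicate is given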
RN4220 kill = growth inhibition of S. aureus RN4220, primary screen, OD600. 16 h. inhibition, % (test concentration not listed). 330,000 tested, 0.33% active. AID 1259311, 2017;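 active = z-score of -3 or lower and OD600 up to 0.18 on both plates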;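 also: plate controls were untreated cells for no effect and reference antibiotic for full effect; stock transfer was 100 nL into about 80 µL; one replicate is shown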
Autofluor counter = compound fluorescence in toxin protease inhibitor counterscreen. 360,000 tested, 3.1% active. compound autofluorescence counterscreen, microsphere flow cytometry; hits give high values. AID 624483. fluorescence intensity (no concentration beside the values);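 active = at least 3 SD above the mean of all compounds, about 16000 in these data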;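 also: 100 nL of 1 mM stock went into each well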
Mtb hypoxia rep = PubChem AID 1159583 | 300,000 tested, 0.1% active | fluorescence inhibition, % (no concentration beside the values) | M. tuberculosis hypoxia-regulated fluorescent reporter, fluorescence;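 active = 35 to 45% if threefold the growth effect, above 45% if 1.5-fold the growth effect; inactive = the rest, general growth blockers included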;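 also: wells of about 50 µL received 100 nL stock; 0% = vehicle wells and 100% = reference inhibitor wells; whole bacteria with a GFP reporter of the hypoxia response; strong numbers were not always called active; many hits fall short of the cut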
PrP 5UTR inh = inhibition of PrP 5' UTR reporter expression | cell-based PrP 5' UTR mRNA reporter, plate reader | inhibition, % (no concentration beside the values) | 340,000 tested, 0.35% active;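 active = every replicate at 50% or more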;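 also: 0 = median of the neutral control wells; tested in H4 reporter cells; numbers are from one replicate; inactives centre near -14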
BJeLR lethal = MLPCN primary cell-based screen for lethality selective to Ras in HRASV12 cells | BJeLR (HRASV12) viability, CellTiter-Glo ATP luminescence, 48 h; reference of the scale not given here | inhibition, % (concentration not given with the values) | 300,000 tested, 0.17% active | AID 1554, 2009;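 active = replicate mean above 50%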;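 also: 50 nL library stock added to about 25 µL; numbers are from one replicate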
Mtb hypoxia rep growth = recorded beside Mtb hypoxia rep, whose call it bears; growth inhibition, %; measured here: M. tuberculosis growth (absorbance);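 0% = vehicle and 100% = reference antibiotic; read after six days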
* hit, by the source's call; . = not tested or not shown.

Structure	ugtP null kill	RN4220 kill	Autofluor counter	Mtb hypoxia rep	Mtb hypoxia rep growth	PrP 5UTR inh	BJeLR lethal
CCn1c(O)c(C=Nc2ccccc2)n(-c2ccccc2)c1=S	-6.2	-3.7	3665	6.2	13.5	-24.6	-0.2
Cc1nnc(SCC(=O)Nc2ccc(S(=O)(=O)N3CCCCC3)cc2)s1	-3.2	-3.0	2851	.	.	-8.9	-2.4
CC(NC(=O)c1cccnc1)C(=O)N1CCCCC1 (stereo not given)	11.2	-0.3	2358	.	.	-4.2	-3.7
CCCOc1ccc(C(=O)CCC(=O)OCC(=O)N2CC(=O)Nc3ccccc32)cc1	8.8	6.3	9899	14.8	5.5	-8.5	1.8
COc1ccc(/C=N/NC(=O)CN2CCN(Cc3ccccc3)CC2)cc1Br	.	.	6200	.	.	-21.3	-0.9
CNS(=O)(=O)c1cc(NC(C)=O)c(C)cc1C	1.1	3.5	2198	10.7	6.6	-26.6	10.5
OCCc1c[nH]c2ccc(OCc3ccccc3)cc12	4.3	2.1	3471	11.7	7.5	-22.5	0.0
O=C(NCc1ccccc1)c1onc(CSc2ccccc2)c1C(=O)NCc1ccccc1	-4.7	-2.3	3748	4.8	0.3	-20.3	3.3
COC(=O)c1cc(COC(=O)CNC(=O)c2ccc(Br)cc2)oc1C	7.7	1.3	3339	3.7	7.0	-12.9	.
COc1cc(/C=C/C(=O)OCC(=O)NC(=O)NCc2ccco2)ccc1OC(F)F	7.1	-0.3	3451	-9.6	9.4	-42.1	.
CCN(CC)CCN1C(=O)C(=O)/C(=C(/O)c2ccc(F)cc2)C1c1cccnc1 (stereo not given)	8.8	-1.8	2533	5.6	6.7	-14.6	-1.9
Cc1cc(C)n(CC(O)Cn2cnc3c2c(=O)n(C)c(=O)n3C)n1 (stereo not given)	-0.6	6.3	22564*	1.8	6.7	-34.6	-4.2
O=C(O)COc1ccccc1C=NNC(=O)c1cc(-c2ccc(Cl)cc2)nc2ccccc12	14.5	7.5	.	11.2	5.0	.	.
COc1cccc(C(=O)NCC2CCCN(C(=O)c3ccc(C=O)cc3)C2)c1OC (stereo not given)	1.4	0.0	5363	2.0	-1.9	-8.1	-1.3
CCOC(=O)COc1ccc(CCNC(C)=O)cc1	2.6	1.4	10723	7.4	9.9	-14.0	8.1
COCC(=O)Nc1c(C(=O)Nc2ccc3c(c2)OCCO3)oc2ccccc12	18.4	3.0	3239	-1.4	0.7	-87.2	28.0
CC(C)c1c(C(=O)N/N=C/c2cccs2)nnn1-c1nonc1N	.	.	5372	.	.	-26.1	11.4
Cc1ccc(C)c(-n2c(Cc3cccs3)n[nH]c2=S)c1	-0.1	14.5	2460	0.7	2.0	-5.4	0.0
OC(CN1CCOCC1)Cn1c2c(c3ccccc31)CCCC2 (stereo not given)	2.6	-6.5	3885	-3.8	9.4	-19.3	2.2
C[C@H](CO)N1C[C@H](C)[C@@H](CN(C)S(=O)(=O)c2ccc(F)cc2)Oc2ccc(NC(=O)C3CC3)cc2C1=O	-4.9	-11.2	3798	3.8	12.7	-23.3	.
CC(C)C(NC(=O)c1ccc2c(c1)OCCO2)c1nc2ccccc2[nH]1 (stereo not given)	10.4	-0.1	4409	-2.2	-7.9	-7.1	-3.2
CC(C)(C)n1nnnc1C(c1ccc(Cl)cc1)N(Cc1cccnc1)Cc1ccco1 (stereo not given)	-9.1	-8.7	.	14.8	7.1	-16.0	1.7
COC(=O)c1sccc1-n1cccc1C(=O)C(=O)N1CC(C)OC(C)C1 (stereo not given)	2.7	1.2	2768	.	.	-10.9	2.6
O=C(CCl)N(c1ccccc1)C1CCCCC1	5.0	4.9	3244	.	.	-34.5	8.0
CCOCCOC(=O)c1cccc2c1-c1ccccc1C2=O	5.8	6.4	2925	-1.3	-5.8	-3.0	3.4
Oc1ccc(NCc2cccc(OCc3ccccc3)c2)cc1	3.6	1.2	4119	-0.7	1.0	-41.0	1.4
COc1ccc2cc(CCNS(=O)(=O)c3c(C)cc(C)cc3C)c(=O)[nH]c2c1	-5.0	11.3	3791	-3.2	1.6	12.8	-2.4
O=C1NC2(CCCCC2)C(=O)N1/N=C/c1ccccc1Br	.	.	4088	.	.	-49.1	-4.7
O=C(Nc1ccccc1C(=O)N1CCOCC1)C1CC(=O)N(c2ccc(F)cc2)C1 (stereo not given)	.	.	5680	.	.	-17.2	-3.2
C=CCNC(=O)c1onc(CSc2ccccc2)c1C(=O)O	-8.9	2.0	3688	-9.4	-9.5	-23.1	-1.6
CCOc1ccc(CCNC(=O)C2CC(=O)N(CCc3ccccc3)C2)cc1OCC (stereo not given)	1.1	0.9	5391	-1.9	4.8	10.2	0.7
Cc1ccc(CCNC(=O)CCNS(=O)(=O)c2ccc3c(c2)oc(=O)n3C)cc1	0.6	0.8	9981	3.7	13.1	-65.7	3.2
COc1ccc(N(CC(=O)NC2CCCCC2)C(=O)CCCC(=O)Nc2ccccn2)cc1	-4.1	1.4	4001	12.7	-0.9	-22.2	7.3
c1ccc(Cn2c(-c3cncs3)nc3ccccc32)cc1	6.9	1.6	20700*	1.5	-3.6	-40.2	-7.8
CCN(CC)C(=O)N1CCC(NC(=O)Cc2ccccc2)CC1	2.2	0.2	3487	14.5	4.0	-15.7	-2.3
COc1ccc(-c2cc(=O)oc(-c3cccc(C)c3)n2)cc1	1.1	0.0	4847	-8.0	6.4	-31.8	1.7
Cc1ccc(NC(=O)CCC(=O)NN=C/C=C/c2ccccc2)cc1	-1.0	0.9	.	-7.1	-8.4	.	.
CCN(c1ccc(OC)cc1)S(=O)(=O)c1nnc(NC(=O)COc2ccc(C)cc2)s1	-0.3	2.1	4553	9.3	-4.6	-5.6	1.3
COc1ccc(OC)c(NC(=O)C(=O)NNC(=O)C23CC4CC(CC(C4)C2)C3)c1	-18.1	3.7	.	-2.4	8.5	1.9	-1.1
CCOc1ccc(-n2nnnc2SCC(=O)N2CCOCC2)cc1	-2.8	-13.0	2471	17.6	15.0	-23.4	7.3
CSc1nc2nc3c(cc2c(=O)n1-c1ccccc1)COC(C)(C)C3	3.8	3.2	2594	-2.2	5.0	0.9	5.1
Cc1ccc(C(=O)/C=C/c2ccc3c(c2)OCCO3)c(O)c1	1.4	-6.5	4192	13.4	6.9	-11.8	2.7
COc1ccccc1C(=O)NNC(=O)C(=O)Nc1cccc(Cl)c1C	.	.	6440	.	.	-0.9	1.0
COC(=O)c1cc(NS(=O)(=O)c2ccc(C)c3ccccc23)ccc1N1CCOCC1	13.0	5.5	3656	5.4	7.0	-17.7	-7.9
Fc1ccc(-n2cnnn2)c(F)c1	-4.5	5.6	9604	-0.9	7.4	-16.7	4.7
Cc1ccc(-c2ccc(=O)n(CC(=O)Nc3ccc4c(c3)OCCO4)n2)cc1	4.2	4.8	4296	-0.3	-2.0	-1.6	2.0
Cc1cccc(NCC(=O)NN=Cc2cccc(Br)c2)c1	6.7	-0.1	.	0.6	-0.2	.	.
Cc1ccc(S(=O)(=O)N2CCN(CCC#N)CC2)cc1	-0.8	2.4	5844	8.7	5.2	-8.3	-7.0
CS(=O)(=O)N(Cc1ccc(C(=O)NC2CCCCC2O)cc1)c1ccccc1 (stereo not given)	1.0	1.0	3729	5.1	8.5	-14.3	4.1
COc1cccc(CC2(CO)CCCN(Cc3ccccc3-c3ccco3)C2)c1 (stereo not given)	-11.1	6.2	2939	-1.2	6.1	-15.4	9.3
COCCCNC(=S)N1CCN(C(=O)c2ccco2)CC1	3.9	4.4	2529	1.8	4.0	-15.0	0.6
COc1ccc(-n2cnnc2SCC(=O)Nc2cc(C(C)(C)C)nn2-c2ccccc2)cc1	-9.0	-5.1	2210	.	.	3.2	4.1
O=[N+]([O-])c1cc(Br)c(O)c(/C=N/Nc2nnnn2-c2cccc3ccccc23)c1	.	.	22718*	.	.	-16.4	-20.3
COC(=O)C1=C(c2cccc(C#N)c2)CC2CCC1N2C(=O)N1CCc2cc(OC)c(OC)cc2C1 (stereo not given)	6.6	5.3	.	16.7	12.3	.	.
C/C(Cn1cnc([N+](=O)[O-])n1)=N\NC(=O)c1ccccc1	.	.	8622	.	.	-29.3	-14.5
Cc1[nH]nc2ncc(C(=O)c3cc(F)ccc3O)cc12	6.5	7.5	3002	-7.7	-2.3	-15.0	-1.8
NC(=O)CC(NC(=O)c1ccccc1)c1ccc(NC2CCC2)c([N+](=O)[O-])c1 (stereo not given)	1.7	3.4	4400	14.4	4.5	-28.3	-10.5
CCCN(CCC)C(=O)CC(c1ccccc1)c1ccc(C)cc1O (stereo not given)	10.9	3.5	22025*	5.0	13.4	-9.5	-10.9
Cc1ccccc1NC(=O)c1cccc(S(=O)(=O)N2CCCCC2)c1	2.8	2.4	3441	3.8	10.1	-7.8	-1.2
Cc1cc(C(=O)O)ccc1-n1c(C)cc(/C=C2\SC(=O)NC2=O)c1C	0.3	0.7	3629	7.3	7.5	-31.0	4.6

(continued)
Structure	ugtP null kill	RN4220 kill	Autofluor counter	Mtb hypoxia rep	Mtb hypoxia rep growth	PrP 5UTR inh	BJeLR lethal
Cc1ccc(C(O)Cn2nc(C)cc2C)cc1 (stereo not given)	-7.9	8.0	3894	15.8	8.1	-0.8	-1.8
CCOc1ccccc1OCC(=O)OCC(=O)Nc1ncc(Cl)cc1Cl	-7.8	-7.7	3136	16.7	-14.5	-10.7	1.0
O=C(CN1CCC(C(=O)O)CC1)Nc1ccccc1Oc1ccccc1	3.0	2.8	3828	8.9	-4.1	.	0.8
CCOC(=O)c1ccc(N2C(=O)Cc3ccccc3C2=O)cc1	1.6	0.2	3632	2.9	-5.8	-5.0	-8.7
CC(/C=C/c1ccccc1)=N\NC(=O)Cn1nc(C)cc1C	.	.	7722	.	.	-23.0	0.3
O=C(NC1=NCCS1)c1ccc(Cl)c(S(=O)(=O)N2CCCCCC2)c1	4.3	1.0	4900	16.8	11.6	-14.7	-0.1
CC1(C)Cc2nc3sc4c(SCC(=O)NCc5ccccc5)ncnc4c3cc2CO1	23.0	3.8	8085	4.0	7.0	-12.1	5.7
COc1ccc(-c2noc(CCC(=O)NCCc3cccc(C)c3)n2)cc1	-7.7	0.9	2423	-11.1	-1.0	-13.7	3.6
FC(F)(F)c1ccccc1NC(=S)Nc1cccc2cnccc12	16.2	3.2	4399	4.7	1.5	-25.3	.
CCc1[nH]nc(C(=O)N2CCCC(N3CCN(c4ccccc4C)CC3)C2)c1C (stereo not given)	-9.4	-1.1	6316	-6.0	9.3	7.3	-1.1

Source: PubChem BioAssay (several laboratories)
